Polio RdRp inh: poliovirus RNA polymerase inhibition | % elongation, % (compound at 16.7 µg/mL) | 0.66% of 150,000 active | AID 588519 | poliovirus polymerase elongation, fluorescence polarization; stronger effect = lower value | P03300; in the data active = % elongation below about 90%; also: some results filed as inactive read as strong as hits
Target sequence (P03300 1749-2209 limits assumed): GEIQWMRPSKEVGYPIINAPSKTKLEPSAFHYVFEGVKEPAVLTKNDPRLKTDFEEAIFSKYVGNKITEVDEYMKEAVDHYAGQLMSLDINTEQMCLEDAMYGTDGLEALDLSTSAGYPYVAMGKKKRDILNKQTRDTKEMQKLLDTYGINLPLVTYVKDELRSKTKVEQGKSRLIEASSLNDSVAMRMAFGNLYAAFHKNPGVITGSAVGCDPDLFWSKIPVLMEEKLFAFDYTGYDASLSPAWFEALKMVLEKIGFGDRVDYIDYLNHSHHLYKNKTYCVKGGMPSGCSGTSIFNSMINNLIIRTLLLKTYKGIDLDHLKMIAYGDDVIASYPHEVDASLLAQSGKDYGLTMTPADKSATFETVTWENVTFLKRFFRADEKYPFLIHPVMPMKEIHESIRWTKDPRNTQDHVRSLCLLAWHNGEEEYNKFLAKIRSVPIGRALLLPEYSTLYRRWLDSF
Polio RdRp inh intensity: recorded beside Polio RdRp inh, whose call it bears; % elongation; measured here: total intensity read-out; formula for this scale not given here;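 total fluorescence in place of polarization; lower means less elongation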
* marks the source's active call; other numbers are inactive results. Only part of the results is shown. The share of hits here may be higher or lower than overall.

The line under a structure holds: Polio RdRp inh	Polio RdRp inh intensity
1) CCc1cccc(-n2nnc(S(=O)(=O)c3ccc(OC)cc3)c2C)c1
→ 104	110
2) Cn1ncc2c(Nc3cccc(F)c3)ncnc21
→ 101	96
3) CCOc1ccc2c(c1)c(=O)c(C(=O)c1ccc(CC)cc1)cn2CC(=O)Nc1cccc(Cl)c1
→ 111	108
4) O=C(Cn1cnc2onc(-c3ccc(Cl)cc3)c2c1=O)Nc1ccc(F)cc1
→ 98	101
5) CCCC(=O)c1ccc(OC(=O)c2c(-c3ccccc3Cl)noc2C)cc1
→ 100	95
6) COc1ccc(NC(=O)N2CCc3c(sc4c3CCCC4)C2c2ccccc2OC)cc1 (stereo not given)
→ 111	114
7) O=C(Nc1cccc(-c2nc3ccccc3[nH]2)c1)c1ccccc1F
→ 110	109
8) Cc1ccc(Cn2cccc(C(=O)Nc3nc4ccc(C)cc4s3)c2=O)cc1
→ 100	96
9) CCOC(=O)CSc1nc(-c2ccc(OC)cc2)cc(C(F)(F)F)c1C#N
→ 105	109
10) CC(C)c1ccc(NS(=O)(=O)c2ccc3[nH]c(=O)ccc3c2)cc1
→ 103	103

Next section
The line under a structure holds: Polio RdRp inh	Polio RdRp inh intensity
11) Cc1ccc(CNCc2cccn2-c2nnc(N3CCCC3)s2)cc1
→ 109	99
12) O=S(=O)(Nc1cccc(-c2ccc(N3CCCCC3)nn2)c1)c1ccc(Cl)s1
→ 110	109
13) COc1ccc(OCc2nc(C#N)c(NCc3ccccc3Cl)o2)cc1
→ 106	102
14) COc1ccc(NC(=O)c2oc3ccc(S(=O)(=O)N4CCOCC4)cc3c2C)cc1
→ 114	115
15) O=C(NCCc1ccccc1)c1nn(-c2ccc(F)cc2)nc1CO
→ 111	104
16) CCC(=O)N1CCc2cc(S(=O)(=O)NC(Cc3ccccc3)C(=O)Nc3ccc(C)cc3)ccc21 (stereo not given)
→ 108	106
17) CCCCn1c(=O)n(CC2CCC(C(=O)NCCCOC)CC2)c(=O)c2sccc21 (stereo not given)
→ 110	111
18) CCc1ccc(-n2nc(CO)c(C(=O)NCCOC)n2)cc1
→ 113	105
19) CCOc1ccccc1Oc1ncnc2c1oc1ccccc12
→ 112	107
20) CC(=O)c1ccc(NS(=O)(=O)c2cc(-c3cc(C)no3)ccc2C)cc1
→ 101	110

Next section:
The line under a structure holds: Polio RdRp inh	Polio RdRp inh intensity
21) CC(=O)Nc1ccc2nc3c(=O)n(C)c(=O)n(C)c3nc2c1C
→ 103	110
22) COc1cc(OC)c(N(C)C(=O)CSc2c3c(nc4ccc(Cl)cc24)CCCC3)cc1Cl
→ 105	110
23) CCc1nnc2c3ccccc3nc(Nc3ccc(F)cc3C)n12
→ 107	105
24) Oc1ccc(Cl)cc1C1=Nc2ccccc2N=C(c2ccccc2)C1
→ 107	97
25) CCCSc1ncc(Cl)c(C(=O)Nc2sc3c(c2C(=O)NCC)CCCC3)n1
→ 108	112
26) CCc1ccc(-n2nc(C)c3c(C(=O)Nc4cccc(C(F)(F)F)c4)cc(C)nc32)cc1
→ 101	107
27) CCc1ccc2c(c1)c(=O)c(S(=O)(=O)c1ccc(Cl)cc1)cn2CC
→ 99	104
28) Cc1cc(C)c2c(=O)cc(C(=O)Nc3sc4c(c3C(=O)NCc3ccco3)CCCC4)oc2c1
→ 102	107
29) O=C(CCNS(=O)(=O)c1ccc2c(c1)CCN2C(=O)C1CC1)Nc1ccc(OC(F)(F)F)cc1
→ 107	104
30) CCCn1c(CCC(=O)Nc2ccc(C)c(Cl)c2)nc2cccnc21
→ 110	116

Remaining list, next part
The line under a structure holds: Polio RdRp inh	Polio RdRp inh intensity
31) O=C(Cn1c2ncccc2c(=O)n1-c1ccccc1)Nc1cccc(C(F)(F)F)c1
→ 104	109
32) O=c1c(-c2ccc(Cl)cc2)c(C(F)(F)F)oc2c(CN3CCCCC3)c(O)ccc12
→ 107	109
33) Cc1ccc2c(c1)c(=O)c(C(=O)c1ccncc1)cn2CC(=O)Nc1c(C)cccc1C
→ 110	114
34) COc1ccc2c(Sc3ccc(Cl)cc3)c(C(=O)N3CCCCC3)[nH]c2c1
→ 99	103
35) COc1cccc(CNC(=O)CCNS(=O)(=O)c2ccc3c(c2)oc(=O)n3C)c1
→ 108	112
36) Cc1ccc(CNC(=O)CCCN2C(=O)COc3ccc(C)cc32)cc1
→ 112	104
37) CCCCNc1sc(S(=O)(=O)CCC)nc1S(=O)(=O)c1ccc(C)cc1
→ 110	106
38) COc1ccc(C)cc1NC(=O)CN1c2ccccc2S(=O)(=O)c2ccccc21
→ 103	113
39) COc1cccc(N2CC(NC(=O)/C=C\c3ccc(OC)c(OC)c3)CC2=O)c1 (stereo not given)
→ 102	102
40) CCOc1ccc(-c2nnc(SCC(=O)NC3CCCCC3)nc2-c2ccc(OCC)cc2)cc1
→ 111	112

A draw from above in order of molecular weight, lowest first:
The line under a structure holds: Polio RdRp inh	Polio RdRp inh intensity
36) Cc1ccc(CNC(=O)CCCN2C(=O)COc3ccc(C)cc32)cc1
→ 112	104
38) COc1ccc(C)cc1NC(=O)CN1c2ccccc2S(=O)(=O)c2ccccc21
→ 103	113
40) CCOc1ccc(-c2nnc(SCC(=O)NC3CCCCC3)nc2-c2ccc(OCC)cc2)cc1
→ 111	112

Next part:
The line under a structure holds: Polio RdRp inh	Polio RdRp inh intensity
41) Cc1ccc(NC(=O)CN2C(=O)C3(SCC(=O)N3c3ccc(F)c(F)c3)c3ccccc32)c(C)c1 (stereo not given)
→ 109	110
42) CCSc1nc(-c2ccc(Cl)cc2)nc2c1Cc1c(CO)cnc(C)c1O2
→ 110	114
43) COc1cccc(NC2=CC(c3ccc(C(C)C)cc3)N(c3cccc(OC)c3)C2=O)c1 (stereo not given)
→ 102	110
44) O=C(COc1ccccc1F)Nc1ccc2nc(SCC(=O)N3CCc4ccccc43)sc2c1
→ 104	101
45) CCOc1ccc(NC(=O)N2CCN(c3nnc(C)c4c(C)n(-c5ccccc5)nc34)CC2)cc1
→ 102	99
46) CCCCOc1cccc(C(=O)Nc2cc(NC(=O)c3ccco3)ccc2OC)c1
→ 113	113
47) COC(=O)c1ccc(C(=O)OC)c(NC(=O)c2cnn3c(C(F)F)cc(-c4ccccc4)nc23)c1
→ 108	113
48) N=c1n(CCN2CCCCC2)c2ccccc2n1CC(O)COc1ccc(Cl)cc1Cl (stereo not given)
→ 104	101
49) CCOC(=O)c1nnn(CC(=O)NC(=O)Nc2cccc(CC)c2)c1C(=O)OCC
→ 105	104
50) COc1ccc2c(c1)CCc1c(C(=O)Nc3c(C)nn(Cc4c(Cl)cccc4Cl)c3C)noc1-2
→ 102	97

(listing goes on)
The line under a structure holds: Polio RdRp inh	Polio RdRp inh intensity
51) COc1ccc(-c2cc(C(F)(F)F)nc(SCCC(=O)Nc3ccc(NC(C)=O)cc3)n2)cc1
→ 107	108
52) O=S(=O)(Nc1cccc(-c2ccc(N3CCCCC3)nn2)c1)c1ccc(F)cc1F
→ 102	105
53) Cc1ccc(NC(=O)Cn2c(-c3cncs3)nc3ccccc32)cc1Br
→ 105	106
54) CCc1nn(CC(=O)N2CCN(c3cccc(C)c3C)CC2)c(=O)c2cc3sccc3n12
→ 106	106
55) CCOc1ccccc1NC(=O)CN1C(=O)C2(SCC(=O)N2c2ccc(C)cc2)c2ccccc21 (stereo not given)
→ 101	105
56) CC(=O)N1CCCc2cc(S(=O)(=O)N(CCN(C)C)Cc3ccccc3)ccc21
→ 112	107
57) CCOc1ccc(-c2cc(-c3nc(-c4cc(OC)c(OC)c(OC)c4)no3)[nH]n2)cc1
→ 102	95
58) Cc1ccc(CSc2ncc(Cl)c(C(=O)Oc3ccccc3F)n2)cc1
→ 106	106
59) CCOc1ccc(-n2c(-c3ccc(OC)cc3)cc3c2CC(C)(C)CC3=O)cc1
→ 104	106
60) COc1ccc(CC(C)NS(=O)(=O)c2ccc3c(c2)CCN3S(C)(=O)=O)cc1OC (stereo not given)
→ 103	98

Random excerpt: 3 compounds from above, in no set order.
The line under a structure holds: Polio RdRp inh	Polio RdRp inh intensity
12) O=S(=O)(Nc1cccc(-c2ccc(N3CCCCC3)nn2)c1)c1ccc(Cl)s1
→ 110	109
19) CCOc1ccccc1Oc1ncnc2c1oc1ccccc12
→ 112	107
18) CCc1ccc(-n2nc(CO)c(C(=O)NCCOC)n2)cc1
→ 113	105

Continued.
The line under a structure holds: Polio RdRp inh	Polio RdRp inh intensity
61) Cc1cccc(Cn2c(Cc3ccccc3)nc3ccccc32)c1
→ 107	107
62) COc1ccc(-c2nnc(SCC(=O)NCCc3ccc(OC)c(OC)c3)nc2-c2ccc(OC)cc2)cc1
→ 100	104
63) COc1ccccc1CNS(=O)(=O)c1ccc(F)c(C(=O)Nc2cc(Cl)ccc2OC)c1
→ 106	96
64) Cc1ccc2c(c1)cc(C(=O)Nc1ccc(F)cc1F)n2C
→ 115	118
65) COc1cccc(C(=O)Nc2cc(-c3ccccc3)no2)c1
→ 106	113
66) Cc1ccc(C)c(NC(=O)Cn2cc(S(=O)(=O)N3CCCC3)c(S(=O)(=O)N3CCCC3)c2)c1
→ 112	115
67) CCOc1ccc(CNC(=O)CSc2cc(=O)n(CC)c3ccccc23)cc1
→ 109	111
68) COc1ccc(NC(=O)c2cc(S(=O)(=O)NCCC3=CCCCC3)ccc2F)cc1
→ 113	119
69) CCOc1ccc(CCNC(=O)c2cn(C)c3ccc(S(=O)(=O)N4CCOCC4)cc3c2=O)cc1OCC
→ 101	104
70) CCCOc1ccc(C2c3c(-c4ccccc4O)n[nH]c3C(=O)N2CCCOCC)cc1OCC (stereo not given)
→ 103	103

Next section:
The line under a structure holds: Polio RdRp inh	Polio RdRp inh intensity
71) CCc1ccc(-n2c(=O)c3c4c(sc3n(CC(=O)c3ccc(Br)cc3)c2=O)CCC4)cc1
→ 101	97
72) Cc1ccc(CNCc2c(C(=O)O)c(C)n(Cc3ccc(C)cc3)c2C)cc1
→ 110	109
73) C#CCOc1ccc(C2CC(=O)Nc3c2c(C)nn3-c2nc(C)cc(C)n2)cc1 (stereo not given)
→ 108	111
74) CCOc1ccc(C(=O)NCCc2csc(-c3cccc(C)c3)n2)cc1
→ 111	115
75) Cc1cc(C(=O)N2CCN(c3ccc(F)cc3)CC2)c2c(C)nn(-c3cccc(Cl)c3C)c2n1
→ 113	102
76) O=C(CSc1nnc(-c2cccs2)o1)Nc1cccc(C(F)(F)F)c1
→ 105	108
77) Cc1ccc(-n2ncc(C(=O)NC3CCCCC3)c2C2CCN(C(=O)OC(C)(C)C)CC2)cc1
→ 121	126
78) COc1ccc(Cn2c(CNS(=O)(=O)c3ccc(Cl)s3)nc3cccnc32)cc1
→ 114	124
79) Cc1ccc(CNC(=O)C2CCN(C(=O)c3cnn(-c4ccccc4)c3-n3cccc3)CC2)cc1
→ 110	109
80) COc1ccc(C(=O)c2cn(Cc3ccccc3F)c3ccc(F)cc3c2=O)cc1
→ 107	108

Remaining list, next part.
The line under a structure holds: Polio RdRp inh	Polio RdRp inh intensity
81) O=C(CSc1cn(CCNC(=O)c2ccccc2F)c2ccccc12)Nc1ccc2c(c1)OCCO2
→ 107	111
82) O=C(NC1CCCCC1)c1ccc2c(c1)N(Cc1ccccc1Cl)C(=O)c1ccccc1S2
→ 108	97
83) COc1cccc(CNC(=O)Cn2ccc3cc(S(=O)(=O)N4CCCC4)ccc32)c1OC
→ 108	114
84) COc1ccc(CCN2C(=O)NC(NC(=O)c3ccccc3OC)(C(F)(F)F)C2=O)cc1OC (stereo not given)
→ 103	103
85) CCc1nn(CCCC(=O)NC(C)c2ccccc2)c(=O)c2cc3occc3n12 (stereo not given)
→ 106	107
86) COc1ccc(-c2cn3nc(N4CCCC(C(=O)Nc5cccc(Cl)c5C)C4)sc3n2)cc1 (stereo not given)
→ 102	106
87) Cc1ccc(C(CC(=O)Nc2ccc(C)cc2C)N2Cc3ccccc3C2=O)cc1 (stereo not given)
→ 101	104
88) COc1ccc(OC(=O)c2nc(SCc3ccc(F)cc3)ncc2Cl)cc1
→ 104	109
89) Cc1nc(N2CCOCC2)c2c(C(=O)NCCc3ccccc3)c(C)oc2n1
→ 100	107
90) COC(=O)c1ccc(OC)c(Cn2c(=O)n(-c3cccc(Cl)c3)c(=O)c3c4c(sc32)CN(C(C)=O)CC4)c1
→ 107	110

Following part:
The line under a structure holds: Polio RdRp inh	Polio RdRp inh intensity
91) CCN(CC)CCCNC(=O)c1nn(-c2ccc(OC)c(Cl)c2)c(=O)c2c1c1ccccc1n2C
→ 109	109
92) Cc1ccc(C)c(N2CCN(C(=O)c3ccc4c(=O)n(CCc5ccccc5)c(=O)[nH]c4c3)CC2)c1
→ 107	113
93) COc1cc(C(=O)Oc2c(Sc3ccccc3)c(C)nn2-c2ccccc2)cc(OC)c1OC
→ 106	109
94) Cc1cc(N2CCC(C(=O)Nc3ccccc3Cl)CC2)n2nc(C)c(-c3ccc(Cl)cc3)c2n1
→ 107	109
95) COc1cccc(CNC(=O)CCS(=O)(=O)c2cc3c(cc2C)NC(=O)CO3)c1
→ 110	107
96) CCN(c1ccccc1)S(=O)(=O)c1nnc(NC(=O)COc2cccc(C)c2)s1
→ 110	91
97) CCc1cccc(NC(=O)Cn2c(=O)n3nc(-c4cccc(F)c4)nc3c3ccccc32)c1
→ 106	108
98) CCc1cccc(NC(=O)CC(c2ccc(OC)cc2)N2Cc3ccccc3C2=O)c1 (stereo not given)
→ 109	109
99) Cc1c(C(=O)Nc2ccccc2Cl)sc2ncnc(N(C)C3CCCCC3)c12
→ 121	127
100) Cc1ccccc1NC(=O)Nc1nnc(N(C)Cc2ccccc2)s1
→ 110	116

The listing continues:
The line under a structure holds: Polio RdRp inh	Polio RdRp inh intensity
101) O=C(NCc1ccc(Cl)cc1)c1ccc2oc(=O)n(Cc3ccccc3)c2c1
→ 107	99
102) O=S(=O)(NCC(c1ccco1)N1CCN(c2ccc(F)cc2)CC1)c1ccccc1 (stereo not given)
→ 102	104
103) CCC(=O)N1CCc2cc(Br)cc(S(=O)(=O)CCC(=O)NCc3ccc(Cl)cc3)c21
→ 108	109
104) Cc1cc2oc(=O)c(CC(=O)O)c(C)c2c2occ(-c3ccc(F)cc3)c12
→ 107	109
105) Cc1oc2ncn(C)c(=O)c2c1C(=O)N1CCN(c2cccc(C(F)(F)F)c2)CC1
→ 102	108
106) O=C(NCCc1ccc(Cl)cc1)c1ccc2c(c1)N(Cc1ccccc1F)C(=O)c1ccccc1S2(=O)=O
→ 108	111

Screens as filed in PubChem.
